Source: PubChem BioAssay
2A StopGo – lowers the luciferase signal of an FMDV 2A StopGo reporter; human cells with a luciferase reporter of 2A StopGo recoding; control for the full effect not named in the record; Potency, µM (highest dose often 57.9 µM), for the others: at the top dose signal change, negative = less light; 1.2% of 410,000 active; active = well fitted falling curve with a large enough effect; inconclusive = small, poorly fitted or top-dose-only effect; inactive = no such curve, though single readings can be large or run the other way; tested in HEK293T cells; further: on the % scale 0 is the no-effect control and ±100 the full control effect; nearly all actives have a fitted effect of over 45% in size; luciferase light after 4 h
MARV entry inh – inhibitors of Marburg virus binding or cell entry. AID 540276. Potency, µM (top dose mostly 37.8 µM), inactives show top-dose activity change, negative = inhibition, hits mostly inhibitors. 1.8% of 300,000 active. Marburg virus pseudotyped entry inhibition, cell reporter; control for the full effect not named in the record; about a third of the inactives were read at about 46 µM; active = well fitted inhibition curve with a large enough effect; inconclusive = small, poorly fitted or top-dose-only effect, or effect the other way; inactive = flat fitted curve, though single readings scatter; tested in HEK293 cells; about a fifth of its hits are not listed in these tables; further: on the % scale 0 is the no-effect control and ±100 the full control effect; luciferase read-out
Cruzain inh noDet – blocks cruzain activity in detergent-free assay; Potency, µM, without a hit: max response, negative = inhibition, actives largely listed as inhibitors; AID 1476; P25779; purified cruzain, Z-FR-AMC fluorescence, no detergent; 2.3% of 200,000 active;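 further: plate controls were enzyme without inhibitor for no effect and buffer without enzyme for full effect; nearly all actives have a fitted effect of over 40% in size; top concentration of the series not given in the record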
Target sequence (P25779 123-467 limits assumed): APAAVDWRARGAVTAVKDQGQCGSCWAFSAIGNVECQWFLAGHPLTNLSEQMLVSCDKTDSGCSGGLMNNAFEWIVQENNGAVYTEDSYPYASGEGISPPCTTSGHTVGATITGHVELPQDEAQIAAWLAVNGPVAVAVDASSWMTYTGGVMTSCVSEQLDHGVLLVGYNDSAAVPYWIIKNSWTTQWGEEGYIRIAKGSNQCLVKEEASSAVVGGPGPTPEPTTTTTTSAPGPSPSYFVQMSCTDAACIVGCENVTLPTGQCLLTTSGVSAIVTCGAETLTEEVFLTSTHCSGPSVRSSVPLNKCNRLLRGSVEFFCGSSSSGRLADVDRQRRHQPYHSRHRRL
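Purified cruzain at 1.5 nM, pre-incubated 15 min with compound at room temperature in 100 mM sodium acetate pH 5.5, 5 mM DTT, 0.00005% Triton X-100. Reaction started with 2 uM Z-FR-AMC; AMC fluorescence increase over 60 s gives rate.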
SARS PLP yeast – blocks SARS-CoV papain-like protease in a yeast assay; S. cerevisiae expressing SARS-CoV PLpro, growth rescue; control for the full effect not named in the record; Potency, µM (top dose mostly 32.9 µM), inactives show top-dose activity, positive = growth rescue; 0.19% of 330,000 active; AID 485353; active means well fitted rising curve with a large enough effect; inconclusive means small, poorly fitted or top-dose-only effect; inactive means no such curve, though single readings can be large or run the other way; further: 0% is about no effect; nearly all actives have a fitted effect of over 55% in size; growth read by luminescence after 48 h
RE007 growth inh – less growth of the S. pombe RE007 Vpr strain; S. pombe RE007 Vpr strain, BacTiter-Glo ATP luminescence, 24 h; control for the full effect not named in the record; 0.21% of 360,000 active; Potency, µM (series often up to 92.2 µM), for inactives: top-dose activity change, negative = less growth; active = well fitted falling curve with a large enough effect; inconclusive = small, poorly fitted or top-dose-only effect; inactive = no such curve, though single readings can be large or run the other way;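 further: on the % scale 0 is the no-effect control and ±100 the full control effect; nearly all actives have a fitted effect of over 50% in size; the assay follows cell death caused by Vpr and the record does not say whether a fall means rescue or toxicity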
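Fission yeast RE007 carrying one integrated HIV-1 vpr copy, seeded at OD 0.01 in PMG+AL medium with 23 nL pinned compound. Grown 24 h at 30 degrees; viability read by BacTiter-Glo luminescence after 5 min.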
Cruzain inh Det – blocks cruzain activity in presence of Triton detergent; P25779; purified cruzain, Z-FR-AMC fluorescence, 0.01% Triton; Potency, µM, for inactives: max response, negative = inhibition, usual class: inhibitors; 0.43% of 200,000 active; AID 1478;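 further: plate controls were neutral wells for no effect and buffer without enzyme for full effect; nearly all actives have a fitted effect of over 40% in size; top concentration of the series not given in the record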
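15 min RT preincubation of 1.5 nM cruzain with compound, then 2 uM Z-FR-AMC added; kinetic AMC fluorescence, 60 s delta. Triton X-100 0.01%, pH 5.5.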
LASV entry inh – Lassa virus entry inhibition; Lassa virus pseudotype entry inhibition, cell reporter; control for the full effect not named in the record; Potency, µM (series often up to 37.9 µM), for the others: at the highest dose activity change, negative = inhibition, actives largely listed as inhibitors; 1.2% of 300,000 active; active means well fitted inhibition curve with a large enough effect; inconclusive means small, poorly fitted or top-dose-only effect, or effect the other way; inactive means flat fitted curve, though single readings scatter; tested in HEK293 cells; further: on the % scale 0 is the no-effect control and ±100 the full control effect; nearly all actives have a fitted effect of over 50% in size; luciferase read-out
NS1 inh – influenza NS1 inhibition | S. cerevisiae slowed by influenza A NS1, growth recovery by OD600 | AID 2326 | Potency, µM (doses to about 46.1 µM), for the others: at the top dose activity, positive = more growth | 0.4% of 270,000 active; active means well fitted rising curve with a large enough effect; inconclusive means small, poorly fitted or top-dose-only effect; inactive means no such curve, though single readings can be large or run the other way; further: nearly all actives have a fitted effect of over 50% in size
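OD600 was taken as the measure of yeast growth restored by compound in an NS1-expressing S. cerevisiae strain. Cells had been washed out of glucose medium and diluted 1:100 into galactose -URA medium, pH 6.0.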
Numbers without * were called inactive; u = inconclusive; x = not tested or not shown; & = joins results of further samples; [ ] = another dose, or the depositor's remark. Unless noted, the call rests on the fitted dose curve; in most records, active means well fitted curve in the direction sought with a large enough effect; inconclusive means small, poorly fitted or top-dose-only effect, or another doubt; inactive means no such curve, though single readings can be large; an effect the other way counts as inactive or inconclusive. Potency means the concentration at half of the fitted maximal effect.

SMILES	2A StopGo	MARV entry inh	Cruzain inh noDet	SARS PLP yeast	RE007 growth inh	Cruzain inh Det	LASV entry inh	NS1 inh
O=C(Cn1cnc2nc3n(c2c1=O)CCC3)NCc1ccccc1	-6%	u	6%	0%	1%	-3.5%	u	7%
COc1cccc(Cn2cnc3c(NS(=O)(=O)c4cc(Cl)ccc4Cl)c(C)c(C)cc32)c1	16%	u	u	3%	14%	-6.2%	u	u
O=C(CN1C(=O)c2ccccc2C1=O)Nc1cccc(O)c1	-19%	7%	x	8%	-4%	x	10%	-5%
NCCN1C(=O)S/C(=C\c2ccc3c(c2)OCO3)C1=O	u	x	x	-1%	-2%	x	x	7%
Cc1cc(NC(=O)COC(=O)CSCc2ccc(Cl)c(Cl)c2)no1	-9%	4%	5%	-20%	-27%	-8.0%	0%	-88%
CC(c1ccc(Br)cc1)N1CC23C=CC(O2)C(C(=O)O)C3C1=O (stereo not given)	-15%	x	-18%	-3%	-6%	3.5%	x	0%
Nc1ccc(-n2nnnc2-c2ccco2)cc1	13%	25%	8%	4%	-7%	-2.8%	17%	1%
CNC(=O)Oc1cccc2c1OC(C)(C)O2	-25%&-1%	12%[46.1 µM]	-4%	x	2%	-0.4%	0%[46.1 µM]	x
C=CCNC(=O)c1ccccc1NS(=O)(=O)c1ccc(SC)cc1	x	21%	0%	2%	-20%	0.8%	11%	-10%
Cc1cc(C)c(S(=O)(=O)c2cccc(Br)c2C)c(Cl)n1	-18%	15%[46.1 µM]	x	4%	5%	x	4%[46.1 µM]	-1%
CCCCCCCCC(=O)NC(NC(=S)N1CCOCC1)C(Cl)(Cl)Cl (stereo not given)	-25%	u	u	1%	-1%	-8.1%	u	10%
CC(C)NC(=O)CCCN1C(=O)CCn2nc(-c3cccn3C)cc21	23%	x	-8%	x	x	1.1%	u	x
O=C1C2CCCN2C(=O)N1CCN1CCN(CCO)CC1 (stereo not given)	-18%	7%	11%	3%	-14%	-0.2%	-3%	-5%
CN1CCN(S(=O)(=O)c2ccc(N(C)Cc3cccs3)nc2)CC1	-14%	-4%	2%	5%	1%	3.4%	-3%	2%
Cc1cc2cccc(C)c2nc1SCC(=O)NC1CCCCC1	-3%	19%[46.1 µM]	x	1%	0%	x	17%	-4%
CCCCOC(=O)c1ccc(NC(=O)C(=O)NCc2cccnc2)cc1	-9%	-27%[46.1 µM]	x	-1%	11%	x	7%[46.1 µM]	2%
CC(C)COCC(CN(Cc1ccccc1)c1ccccc1)N1CCCC1 (stereo not given)	u	u	-5%&20%	-1%	-16%[18.4 µM]	-7.7%&1.9%	13%	-9%&1%
Cc1cc(C)c2c(N)c(C(=O)N/N=C/c3ccccc3)sc2n1	46%[activator]	x	x	-4%	8%	x	x	0%
COc1cc(/C=C/[N+](=O)[O-])ccc1OC(=O)/C=C/c1ccc(F)cc1	u	-19%	x	-5%	10%	x	2%	24%
Nc1c(-c2ccc(Cl)cc2)cnc2ncnn12	1%	-13%	-3%	-11%	2%	0.1%	5%	-9%
Cc1ccc2c(c1)N(CC(=O)N1CCCC(C)C1)C(=O)CO2 (stereo not given)	1%	3%[46.1 µM]	x	0%	-18%	x	-13%[46.1 µM]	4%
CCC(NC(=O)Nc1cc(OC)c(OC)c(OC)c1)(C(F)(F)F)C(F)(F)F	-7%	-9%&-9%&-9%	27%	4%	8%	-7.1%	-24%	1%
Cc1c(C(=O)O)cccc1[N+](=O)[O-]	0%	8%	-4%	1%	3%	2.8%	x	x
COC(=O)c1ccc(CSc2ccc3nnc(-c4cccc(F)c4)n3n2)o1	u	x	u	-4%	4%	-6.4%	x	-133%
Cc1cc(C)c2c(c1)c(C)cc1nnc(SCc3ccccc3C#N)n12	-18%	2%[46.1 µM]	0%	x	x	-3.9%	-16%[46.1 µM]	x
COc1ccc(OC)c(NC(=O)c2c(NCc3ccc(OC)c(OC)c3)sc3c2CCC3)c1	u	x	-7%	x	x	-3.7%	-1%[46.1 µM]	x
CCn1cc(C(=O)NCCc2ccc(OC)c(OC)c2)c(=O)c2cc(S(=O)(=O)N3CCOCC3)ccc21	-2%&31%	u	u	12%	-4%	-4.3%	11%&-2%[46.1 µM]	-2%
O=C(CCC1N=C2c3ccccc3N=C(SCc3ccc(F)cc3)N2C1=O)N1CCN(c2ccccc2)CC1 (stereo not given)	-15%	25%[46.1 µM]	-2%	x	x	-6.9%	12%[46.1 µM]	x
Cn1cnc(S(=O)(=O)N2CCCC(C(=O)Nc3cccc(C#N)c3)C2)c1 (stereo not given)	-7%	x	-2%	x	x	-0.2%	11%[46.1 µM]	x
CC(NC(=O)c1ccc(CS(=O)(=O)Cc2ccccc2F)o1)c1ccc2c(c1)OCCO2 (stereo not given)	-19%	4%&4%	13%	6%	3%	-5.2%	-19%	2%
O=C(COc1ccc(Br)cc1)Nc1ccc(C(=O)Nc2ccccc2C(=O)O)cc1	27%	22%	x	-1%	3%	x	-1%	13%
COc1cccc(CN(C)C(=O)c2ccc(NS(=O)(=O)c3ccc4[nH]c(=O)[nH]c4c3)cc2)c1OC	-9%	9%	x	4%	-7%	x	0%	-20%
CCOC(=O)c1snc2c(=O)[nH]cnc12	19%	u	1%	3%	2%	1.7%	12%	7%
CCN(CC)S(=O)(=O)c1cccc(C(=O)NCCCN2CCOCC2)c1	-6%	8%	7%	2%	14%	4.2%	3%	1%
Cc1ccn2c(CNC(C)CCn3cccn3)c(C(=O)N3CCCCCC3)nc2c1 (stereo not given)	-7%	-11%[46.1 µM]	x	1%	6%	x	-9%[46.1 µM]	0%
COc1ccccc1NS(=O)(=O)c1cc(NC(=O)c2ccco2)ccc1N1CCOCC1	31%[activator]	-5%[46.1 µM]	x	0%	-3%	x	4%	x
CCOc1ccc(S(=O)(=O)N(CC(=O)Nc2ccc(OC)c(Cl)c2)c2ccccc2)cc1	0%	3%[46.1 µM]	5%	x	x	-0.5%	-9%[46.1 µM]	x
CCc1nnc(NC(=O)c2nc(S(=O)(=O)Cc3ccc(C)cc3)ncc2Cl)s1	28µM*	u	4%	6%	-17%	-1.1%	u	7%
O=C(CCCN1C(=O)/C(=C/c2cccs2)SC1=S)NNC(=O)c1ccccc1O	-1%	5%	-12%	u	x	-4.1%	u	8%
CCOC(=O)N1CCN(C(=O)COC(=O)c2ccc(Cl)nc2)CC1	-10%	-2%	x	2%	-4%	x	-8%	x
CCC(C)c1ccccc1OCCCN(C)Cc1ccccc1 (stereo not given)	-22%	u	x	-8%	-9%	x	-19%	-22%
CCOC(=O)C1=C(C)N(C)C(C)=C(C(=O)OCC)C1c1ccc(Cl)cc1	-12%	u	1%	-57%	4%	-11%	0%	-24%
CCn1ncc(Br)c1C(=O)Nc1ccn(C23CC4CC(CC(C4)C2)C3)n1	u	u	12%	-28%	11%	-2.4%	u	-11%
CC1=C(C(=O)OCc2ccccc2)C(c2ccc(Br)cc2)NC(=O)N1CCCC(=O)O (stereo not given)	1%	x	x	0%	-9%	x	x	4%
COc1ccc(OC)c(/C=N/NC(=O)c2[nH]nc3c2CCc2ccccc2-3)c1	u	0%	-10%	-12%	6%	-15%	-19%	-4%
CCOc1ccc(CC(=O)NC2CC(=O)N(c3ccc(C)c(C)c3)C2)cc1 (stereo not given)	-23%	x	-2%	x	x	1.0%	-25%[46.1 µM]	x
Clc1ccc(OCc2cn3ccccc3n2)c2ncccc12	45%[activator]	u	x	-2%	-9%	x	-3%	-6%
C=CCSc1nnc(C)c(/C=C/Nc2ccc(Cl)cc2)n1	-7%	-2%[46.1 µM]	x	0%	-3%	x	u	x
CCn1c(SCC(=O)Nc2cc(C(C)(C)C)nn2-c2ccccc2)nnc1-c1cccs1	0%	u	18%	10%	6%	-4.4%	u	-10%
Cc1nc2ccccc2n1CC(O)Cn1c(C(F)(F)F)nc2ccccc21 (stereo not given)	u	-16%	5%	1%	4%	0.9%	-12%	-6%
COc1ccc(Cc2nc3ccc(C(=O)N(C)C(C)c4nccs4)cc3o2)cc1 (stereo not given)	12%	-1%[46.1 µM]	x	-5%	2%	x	u	-8%
CN(C)c1ccc(C(CNC(=O)Cc2ccc(Cl)cc2)N2CCOCC2)cc1 (stereo not given)	-5%	x	6%	x	x	-0.2%	12%[46.1 µM]	x
CCc1ccc(CNC(=O)c2cc(=O)[nH]c3ccc(S(=O)(=O)N4CCCCC4)cc23)cc1	-8%	x	7%	x	x	-0.1%	1%[46.1 µM]	x
CCOc1ccc(C(=O)OCCN(C)C)cc1	3%	2%	-10%	-7%	-9%	0.0%	8%	5%
Cc1cccc(NC(=S)N(Cc2ccc(Br)cc2)Cc2ccc(C(=O)O)cc2)c1	-12%	2%	x	1%	5%	x	7%	x
Cc1ccccc1/C=N/NC(=O)c1cccnc1	22%	x	x	3%	2%	x	x	7%
Cc1ccccc1-c1nc(SCC(=O)NCc2ccco2)c2c(=O)n(C)c(=O)n(C)c2n1	0%	x	-15%	x	x	1.2%	-2%[46.1 µM]	x
CCCC(CCC(=O)Nc1ccc(C(=O)OC)cc1)C(=O)O (stereo not given)	-10%	u	8%	27%	0%	0.0%	-5%	8%
Cc1ccc(NC(=O)CCC(=O)N2Cc3ccccc3Oc3ncccc32)c(C)c1	-17%	x	-1%	x	x	-0.5%	3%[46.1 µM]	x
CCNc1nc(NC(C)C)nc(Oc2ccc(/C=N/O)cc2)n1	-1%	-24%[46.1 µM]	1%	7%	10%	2.3%	-28%	8%
COc1ccc(C[C@H]2CN3C(=NC[C@H]3Cc3ccccc3)N2CCNC(=O)CCC2CCCCC2)cc1	-22%	x	x	0%	5%	x	x	7%
O=C(NN=C1CCCCCC1)c1cn(-c2ccccc2)nc1-c1ccccc1	27%	u	-13%	8%	3%	-6.3%	u	14µM*
